Assay outcomes as filed in PubChem.
PMP22 txn prim: modulates PMP22 transcription in S16 Schwann cells | S16 Pmp22-F2sN Schwann cells (luciferase reporters placed in the Pmp22 gene), FLuc/NLuc coincidence luminescence, 24 h | Potency, µM (top dose mostly 57.5 µM), without a hit: top-dose activity change, negative = inhibition, actives largely listed as inhibitors | hit rate 2% among 43,000; active = clear falling dose curves in both reporters; inconclusive = both reporters move, but less clearly or upward; inactive = either reporter flat; the % is the NLuc reporter signal; note: % is set by controls: 0 for no effect and ±100 for the full control effect; some results filed as inactive show a strong effect at the top dose
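Transcriptional readout in edited S16(c9) cells: two luciferases reported from the Pmp22 locus, measured in turn after 24 h compound incubation.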
HTT promoter inh: HTT promoter inhibition; hit rate 0.93% among 48,000; AID 1508623; Potency, µM (doses to about 57.5 µM), without a hit: at the highest dose activity change, negative = inhibition, most hits filed as inhibitors; HEK293 HTT promoter firefly luciferase reporter (activity 0% = vehicle and -100% = no light), 24 h; active = well fitted inhibition curve with a large enough effect; inconclusive = small, poorly fitted or top-dose-only effect; inactive = no such curve, though single readings can be large or run the other way; note: nearly all actives have a fitted effect of over 50% in size
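Luminescence was read after Dual-Glo reagent and a 10 min room-temperature incubation. Values were normalized to vehicle (0% activity) and zero RLU (-100% activity). Reporter HEK293 cells had been exposed to compounds (up to 57.5 uM final) for 24 h.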
The depositor's hits bear a star; ? = inconclusive; . = not tested or not shown; [ ] = remark or other dose. Potency is the fitted concentration of half-maximal effect.

Results follow in this order: PMP22 txn prim	HTT promoter inh
1. C[C@@H]1C[C@H]2[C@@H]3CCC4=CC(=O)C=C[C@]4(C)[C@@]3(F)[C@@H](O)C[C@]2(C)[C@@]1(O)C(=O)CO
→ .	16%
2. Clc1ccccc1CNCCCSc1nnnn1-c1ccccc1
→ -8%	-11%
3. CCOC(=O)C1CCN(C(=O)Cn2ncc3c([nH]c4ccccc43)c2=O)CC1
→ -10%	10%
4. O=C1CS(=O)(=O)C2(C(=O)N(Cc3cccc(F)c3)c3ccccc32)N1c1ccccc1 (configuration not stated)
→ -17%	?
5. CCOc1ccc(NC(=O)c2ncn(-c3ccccc3)n2)cc1
→ 6%	36%[activator]
6. COc1ccc(CNC(=O)CS(=O)Cc2nc(-c3cccc(C)c3)oc2C)cc1 (configuration not stated)
→ -6%	-8%
7. CCOc1ccc(CNc2nc3nc(C)c(Cc4ccccc4)c(=O)n3[nH]2)cc1
→ -6%	-2%
8. CC(=O)N1CCN(c2csc3ccc(Cl)cc3c2=O)CC1
→ -3%	11%
9. CCOC(=O)c1ccc(Nc2nc(N)c3cc(OC)c(OC)cc3n2)cc1
→ ?	-28%
10. CCOCCCn1c(=N)c(S(=O)(=O)c2ccccc2)cc2c(=O)n3cc(C)ccc3nc21
→ ?	4%
11. Cc1cccc2sc(N(Cc3cccnc3)C(=O)C3CCCCC3)nc12
→ -36%	-29%
12. COc1ccc(C(=O)NCCn2cc(SCc3cccc(F)c3)c3ccccc32)cc1OC
→ ?	25µM*
13. CCCCNC(=O)c1cnn2c(C)c(Cc3c(F)cccc3Cl)c(C)nc12
→ ?	-18%
14. Cc1ccc(C)c(NC(=O)Cn2c(=O)ccc3cc(S(=O)(=O)N4CCCC4)ccc32)c1
→ ?	?
15. Cc1cc(C)cc(NC(=O)C2(c3cccs3)CCOCC2)c1
→ 3%	-4%
16. COc1cccc(CSc2nc3n(n2)C(CC(C)C)C(C(=O)Nc2ccccc2C)=C(C)N3)c1 (configuration not stated)
→ -4%	-14%
17. CCC(C)(C)NC(=O)C1CCN(S(=O)(=O)c2c(C)noc2/C=C/c2ccc(C)cc2)CC1
→ -21%	?
18. CCOc1ccc(CCNC(=O)CCCn2c(=O)c3cccn3c3cccnc32)cc1OCC
→ -37%	10%
19. CCOc1ccc(S(=O)(=O)NCC(c2cccs2)S(=O)(=O)c2ccc(C)cc2)cc1 (configuration not stated)
→ ?	-22%
20. CC(=O)c1ccc(NC(=O)c2cc(C)nn2-c2ccccc2)cc1
→ 2%	4%
21. O=C(Nc1cccc(F)c1)C1CCN(c2nc3ccccc3nc2C(F)(F)F)CC1
→ ?	?
22. COc1cccc2cc(-c3csc(-c4ccc(Cl)cc4)n3)c(=O)oc12
→ -8%	-5%
23. Cc1ccc(Cl)cc1N1CCN(c2nc3ccc(C(=O)c4ccccc4)cc3n3cnnc23)CC1
→ -24%	-23%
24. O=S(=O)(c1ccc(Br)cc1)c1nc(-c2ccco2)oc1SCc1ccccc1F
→ ?	?
25. Cc1ccc(-c2nc(CS(=O)(=O)CC(=O)Nc3ccc(Br)cc3F)c(C)o2)cc1
→ 2%	-12%
26. CCc1cccc(C)c1NC(=O)Cn1c(=O)cc(C)c2c(C)nn(-c3cccc(F)c3)c21
→ -5%	-25%
27. Cc1cccc(NC(=O)/C(C#N)=C/c2ccco2)c1
→ -25%	47%[activator]
28. CCc1ccc(NC(=O)C(=O)NCC(c2cccnc2)N2CCc3ccccc3C2)cc1 (configuration not stated)
→ ?	?
29. COc1ccccc1NC(=O)CN1C(=O)CC(c2ccc(C)c(C)c2)=Nc2ccccc21
→ ?	15%
30. Cc1ccc(NC(=O)CN(C)S(=O)(=O)c2ccc3[nH]c4c(c3c2)CCCC4)c(Cl)c1
→ ?	-2%

Along the list, as entered above:
Nos. 7 to 15 in HTT promoter inh: -2%, 11%, -28%, 4%, -29%, 25µM*, -18%, ?, -4%
Nos. 7 to 15 in PMP22 txn prim: -6%, -3%, ?, ?, -36%, ?, ?, ?, 3%

At a glance, some entries already given.
Results follow in this order: PMP22 txn prim	HTT promoter inh
8. CC(=O)N1CCN(c2csc3ccc(Cl)cc3c2=O)CC1
→ -3%	11%
9. CCOC(=O)c1ccc(Nc2nc(N)c3cc(OC)c(OC)cc3n2)cc1
→ ?	-28%
10. CCOCCCn1c(=N)c(S(=O)(=O)c2ccccc2)cc2c(=O)n3cc(C)ccc3nc21
→ ?	4%
11. Cc1cccc2sc(N(Cc3cccnc3)C(=O)C3CCCCC3)nc12
→ -36%	-29%
12. COc1ccc(C(=O)NCCn2cc(SCc3cccc(F)c3)c3ccccc32)cc1OC
→ ?	25µM*
13. CCCCNC(=O)c1cnn2c(C)c(Cc3c(F)cccc3Cl)c(C)nc12
→ ?	-18%
14. Cc1ccc(C)c(NC(=O)Cn2c(=O)ccc3cc(S(=O)(=O)N4CCCC4)ccc32)c1
→ ?	?
15. Cc1cc(C)cc(NC(=O)C2(c3cccs3)CCOCC2)c1
→ 3%	-4%
16. COc1cccc(CSc2nc3n(n2)C(CC(C)C)C(C(=O)Nc2ccccc2C)=C(C)N3)c1 (configuration not stated)
→ -4%	-14%
17. CCC(C)(C)NC(=O)C1CCN(S(=O)(=O)c2c(C)noc2/C=C/c2ccc(C)cc2)CC1
→ -21%	?
18. CCOc1ccc(CCNC(=O)CCCn2c(=O)c3cccn3c3cccnc32)cc1OCC
→ -37%	10%
19. CCOc1ccc(S(=O)(=O)NCC(c2cccs2)S(=O)(=O)c2ccc(C)cc2)cc1 (configuration not stated)
→ ?	-22%
20. CC(=O)c1ccc(NC(=O)c2cc(C)nn2-c2ccccc2)cc1
→ 2%	4%
21. O=C(Nc1cccc(F)c1)C1CCN(c2nc3ccccc3nc2C(F)(F)F)CC1
→ ?	?
22. COc1cccc2cc(-c3csc(-c4ccc(Cl)cc4)n3)c(=O)oc12
→ -8%	-5%
23. Cc1ccc(Cl)cc1N1CCN(c2nc3ccc(C(=O)c4ccccc4)cc3n3cnnc23)CC1
→ -24%	-23%
24. O=S(=O)(c1ccc(Br)cc1)c1nc(-c2ccco2)oc1SCc1ccccc1F
→ ?	?

(next part)
Results follow in this order: PMP22 txn prim	HTT promoter inh
31. COc1ccccc1N1CCN(C(=O)c2nc(SC)ncc2Cl)CC1
→ -22%	?
32. Cc1ccc(N2CCN(S(=O)(=O)c3nnc(NC(=O)c4ccccc4)s3)CC2)cc1
→ 9%	-5%
33. C#C[C@]1(O)CC[C@H]2[C@@H]3[C@H](C)CC4=C(CCC(=O)C4)[C@H]3CC[C@@]21C
→ .	0%
34. Oc1c(C(c2ccccc2F)N2CCOCC2)sc2nc(-c3ccco3)nn12 (configuration not stated)
→ -7%	20%
35. COc1cc(C2CC(=O)c3c([nH]c(C(=O)OC4CCCCC4)c3C)C2)cc(OC)c1OC (configuration not stated)
→ 18µM*	?
36. Fc1ccc(CSc2nc(NCc3ccccc3)c3ccccc3n2)cc1
→ ?	-23%
37. COc1ccc(-n2c(C)nc3cc(C(=O)NC4CCCCCC4)ccc32)cc1
→ -11%	-26%
38. CCCCN(C)C(=O)C1CCC(CNS(=O)(=O)c2ccc(Cl)cc2)CC1 (configuration not stated)
→ -20%	?
39. COc1ccc(-c2nc3c(C#N)c[nH]n3c2NC2CCCC2)cc1
→ 15µM*	6%
40. COc1ccc(NC(=O)C2CCCN(S(=O)(=O)c3cn(C)cn3)C2)cc1Cl (configuration not stated)
→ 15%	-29%
41. CCc1ccccc1NC(=O)N1CCN(C(=O)c2nsc3ccccc23)CC1
→ 2%	-6%
42. Cc1oc(-c2cccc(Cl)c2)nc1CN1CCC(C(=O)NCc2ccc(F)cc2)CC1
→ ?	5%
43. CSC1=NC2(CCN(C(=O)NC3CCCCC3)CC2)N=C1c1ccc(C(C)(C)C)cc1
→ -2%	-24%[11.5 µM]
44. COc1ccc(OC)c(NC(=O)c2cc3c(=O)oc4ccccc4c3s2)c1
→ 1%	-5%
45. Cc1ccc2nc(SCC(=O)Nc3ccc(C#N)cc3)[nH]c2c1
→ -16%	-14%
46. Cc1ccc(Nc2c(-c3c[nH]c4ccccc34)nc3cc(C)ccn23)cc1
→ ?	26%
47. CCN(CC)C(=O)c1sc2c(c1C)c(=O)n(-c1ccc(C)c(C)c1)c(=O)n2Cc1cccc(Cl)c1
→ 15%	?
48. CCOc1ccc(C(=O)Nc2ccc3nc(SCC(=O)N4CCc5ccccc54)sc3c2)cc1
→ -21%	-8%
49. Nc1nc2nc(-c3ccccc3)cc(=O)n2[nH]1
→ 51%	-2%
50. O=C(NCCc1ccccc1)c1cnn(-c2ccc(F)cc2)c1-n1cccc1
→ ?	?
51. CNC(=O)Cn1nc(-c2ccc(Cl)cc2)c2ccccc2c1=O
→ 11%	-15%[11.5 µM]
52. CCNC(=O)Cn1nc(C)n2c(cc3c(OC)cccc32)c1=O
→ -11%	-1%
53. CCc1ccccc1NC(=O)CSC1=Nc2ccccc2C2=NC(Cc3ccccc3)C(=O)N12 (configuration not stated)
→ ?	-29%
54. CCOCCCn1c(SCC(=O)NCCCOC)nc2c(sc3ccccc32)c1=O
→ 8%	-9%
55. CCc1ccc(NC(=O)Cn2c(=O)c(CNc3ccccc3)cc3cc(OC)c(OC)cc32)cc1
→ ?	2%
56. Cc1ccc(C(C)C)c(O)c1
→ .	12%
57. CCOC(=O)N1CCN(Cc2nc3cc(NC(=O)c4ccc([N+](=O)[O-])cc4)ccc3n2C(C)C)CC1
→ 14µM*	?
58. O=C(Nc1cc(-c2nc3cc(Cl)ccc3o2)ccc1Cl)c1cccc2ccccc12
→ 3%	25%
59. COc1ccc(O)cc1
→ .	8%
60. O=C(CCn1cnc2onc(-c3ccc(F)cc3)c2c1=O)Nc1ccc(F)c(Cl)c1
→ ?	22µM*

(list continues)
item	smiles	PMP22 txn prim	HTT promoter inh
61	Cc1ccc2nc(/C(C#N)=C/c3cccc(Br)c3)[nH]c2c1	?	-4%
62	CCOC(=O)c1ccc(NC2=CC(c3ccc(F)cc3)N(c3ccc(C(=O)OCC)cc3)C2=O)cc1 (configuration not stated)	5%	2%
63	CCOc1ccc(CNC(=O)c2cnc3sc(N(CC)CC)nn3c2=O)cc1OC	-6%	-3%
64	Cc1ccc(-c2nc(S(=O)(=O)c3ccccc3)c(SCC(=O)NC3CCCCC3)o2)cc1	?	-14%
65	CCc1ccc(-n2c(SC(CC)C(=O)N(CC)CC)nc3n[nH]c(C)c3c2=N)cc1 (configuration not stated)	?	?
66	COc1ccc(S(=O)(=O)N2CCC(C(=O)Nc3cc(C(F)(F)F)ccc3Cl)CC2)cc1	?	?
67	O=C(Nc1noc2ccccc12)c1cccc(F)c1	-7%	67%[activator]
68	COCCCn1c(=N)c(S(=O)(=O)c2ccccc2)cc2c(=O)n3cccc(C)c3nc21	-17%	4%
69	O=C(Cn1c(=O)c2cccn2c2ccc(F)cc21)N1CCN(c2ccccc2)CC1	-38%	-3%
70	Cc1nn(CC(=O)NCCc2ccccc2)c(=O)c2nn(-c3ccccc3)c(C)c12	-2%	-1%
71	COc1cc(Cl)c(C)cc1NC(=O)CSc1cc(-c2ccccc2)nc(C)n1	-4%	-7%
72	Cc1ccc2oc(=O)c(S(=O)(=O)c3ccc(C(C)(C)C)cc3)cc2c1	-21%	-20%
73	Cc1ccc(CNC(=O)c2cc3c(=O)n(Cc4cccnc4)ccc3nc2C)cc1	?	-25%
74	CCN(C(=O)c1cc2c(=O)oc3ccc(C)cc3c2s1)c1ccccc1F	?	-1%
75	Cc1ccc(CNC(=O)C2CCCN(c3nc4c(C)cc(C)cc4s3)C2)cc1 (configuration not stated)	-4%	15%
76	Cc1ccc(NC(=O)N2CCN(C(=O)c3nsc4ccccc34)CC2)cc1C	-3%	-2%
77	COc1ccc(CCNC(=O)C(=O)NCC(c2ccco2)S(=O)(=O)c2ccc(F)cc2)cc1 (configuration not stated)	?	?
78	CCOC(=O)c1ccc(NC(=O)CSc2nc(-c3cccs3)cc(C(F)(F)F)c2C#N)cc1	-7%	-21%
79	CCc1ccc2nc(N3CCC(C(=O)NCCC(C)C)CC3)sc2c1	?	-27%
80	CCOc1ccc(NC(=O)Cn2nc(Cc3ccncc3)c3ccccc3c2=O)cc1	0%	-22%
81	CCc1ccc(C2CC(=O)N(c3cccc(C(F)(F)F)c3)C3=C2C(=O)OC3)cc1 (configuration not stated)	3%	-17%

Quoted from above: compounds 1–2
item	smiles	PMP22 txn prim	HTT promoter inh
1	C[C@@H]1C[C@H]2[C@@H]3CCC4=CC(=O)C=C[C@]4(C)[C@@]3(F)[C@@H](O)C[C@]2(C)[C@@]1(O)C(=O)CO	.	16%
2	Clc1ccccc1CNCCCSc1nnnn1-c1ccccc1	-8%	-11%

Only part of the results is shown. The share of hits here may be higher or lower than overall.
